# ALR inh: inhibitors of human sulfhydryl oxidase ALR | actives 3.8% (n = 290,000) | inhibition, % (concentration not given with the values) | P55789 | AID 485317 | purified ALR, DTT oxidation, H2O2 HRP-luminol luminescence;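 active = mean and each replicate at 75% or more; inconclusive = only one of the two met; inactive = neither met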;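 also: stock transfer was 7.5 nL into about 7.5 µL; 0% = neutral wells and 100% = wells with inactivated enzyme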
# Target sequence (P55789 whole entry, looked up): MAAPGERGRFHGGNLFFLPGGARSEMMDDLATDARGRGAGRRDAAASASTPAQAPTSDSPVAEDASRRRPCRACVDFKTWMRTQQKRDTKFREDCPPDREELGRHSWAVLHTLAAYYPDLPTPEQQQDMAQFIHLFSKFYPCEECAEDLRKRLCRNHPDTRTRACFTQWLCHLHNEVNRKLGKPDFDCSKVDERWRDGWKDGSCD
# E coli growth: blocks Escherichia coli growth; OD600, 23 h; active compounds read low; OD600 absorbance (concentration not given with the values); actives 0.21% (n = 330,000);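 active = OD600 absorbance below the run mean of sample wells minus 3.6 SD, in any replicate, cut at about 0.56 in these data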;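 also: stock transfer was 300 nL into about 60 µL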
# HNF4A DNA FP: change in binding of human HNF4 alpha to DNA; actives 0.3% (n = 360,000); activity change, % at 10 µM; HNF4a-FITC DNA binding, fluorescence polarization, 1 h; AID 1224865; P41235; in the data active = activity change above about 30%, passing the limit was not always enough;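 also: controls were the assay level and a saturating level of protein; the project sought stronger binding though the title names inhibitors; some compounds called inactive have numbers as strong as hits; positive values seem to mean higher polarization but the record does not say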
# MLL AF4-AF9 inh: blocks AF4 peptide binding to human AF9 | P42568 | AID 651704 | AlphaScreen, biotin-AF4 peptide binding to FLAG-AF9 | actives 0.47% (n = 350,000) | inhibition, % at 10 µM;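 active = every replicate reaching a set inhibition limit, whatever the replicate mean, cut at about 25% in these data; inconclusive = mean inhibition reaches that limit but some replicates miss it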;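 also: 0% = plate neutral control median and 100% = total signal loss; the record names both 10 and 1 µM as test concentration; the first replicate is given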
# Target sequence (P42568 whole entry, looked up): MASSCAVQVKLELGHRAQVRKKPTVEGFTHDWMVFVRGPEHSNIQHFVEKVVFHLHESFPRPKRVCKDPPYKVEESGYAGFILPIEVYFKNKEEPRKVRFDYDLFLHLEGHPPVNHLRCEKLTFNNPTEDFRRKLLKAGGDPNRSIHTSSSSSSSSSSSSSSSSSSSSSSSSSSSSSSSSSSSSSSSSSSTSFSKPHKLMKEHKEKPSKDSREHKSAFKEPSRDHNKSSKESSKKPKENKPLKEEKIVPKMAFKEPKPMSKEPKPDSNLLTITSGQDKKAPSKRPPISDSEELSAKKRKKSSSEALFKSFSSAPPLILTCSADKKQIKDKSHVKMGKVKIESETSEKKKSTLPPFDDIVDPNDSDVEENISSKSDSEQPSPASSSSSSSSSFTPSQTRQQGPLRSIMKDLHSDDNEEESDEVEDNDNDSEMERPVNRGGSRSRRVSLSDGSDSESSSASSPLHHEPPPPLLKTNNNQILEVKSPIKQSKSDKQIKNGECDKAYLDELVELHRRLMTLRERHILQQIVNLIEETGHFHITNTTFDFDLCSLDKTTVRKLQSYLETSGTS
# Ecoli rRNA inh: inhibits bacterial ribosomal RNA function over humanized ribosomes | E. coli WT GFP vs humanized-ribosome RFP mutants, fluorescence, 24 h; active compounds read low; DMSO median 0, no signal -100 | GFP signal change (wild-type ribosome), % (no concentration beside the values) | actives 1.6% (n = 350,000);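 active = significant combined selectivity score with lowered wild-type GFP, culture density cut under 30%, mutant RFP and density less affected; inactive = any of these conditions unmet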; also: one replicate is shown; some compounds called inactive have numbers as strong as hits
# FGF22 binding: binders of recombinant human FGF22 by thermal shift; calls only at 9.99 µM; SYPRO orange fluorescence; percent of sucrose octasulfate shift, DMSO zero; Q9HCT0; actives 1.5% (n = 340,000); AID 651658;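 active = melting point raised past a set limit in the mean and every replicate; inconclusive = no clear call; three in four hits are not shown here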
# Target sequence (Q9HCT0 whole entry, looked up): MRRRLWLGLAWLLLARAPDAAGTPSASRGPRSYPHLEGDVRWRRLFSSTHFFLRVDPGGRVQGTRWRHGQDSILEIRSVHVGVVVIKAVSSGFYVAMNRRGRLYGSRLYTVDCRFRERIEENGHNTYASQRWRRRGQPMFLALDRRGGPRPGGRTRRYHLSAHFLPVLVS
# Vif A3G: inhibitors of Vif binding to APOBEC3G peptide, primary screen, biochemical, TR-FRET, GST-Vif 1-94, biotin-A3G peptide, dose response retest (AID 1117319). TR-FRET GST-Vif / biotin-A3G peptide binding; higher % means a stronger effect; test concentration not given here; strong numbers were not always called active. one-dose inhibition, %; IC50 in µM for titrated hits. actives 0.57% (n = 260,000);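 active = above the screen mean plus three standard deviations and confirmed in dose response; inconclusive = results disagree or hit not tested in dose response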;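 also: Vif residues 1-94 fused to GST binding biotinylated APOBEC3G peptide 110-148; 0% = full assay without inhibitor and 100% = GST in place of GST-Vif; retest series ran down from 100 µM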
# Ecoli rRNA inh OD600: second read-out of Ecoli rRNA inh, no call of its own (marks repeat the call); OD600 change, %; measured here: OD600 growth;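 optical density of the mix in the first replicate; 0 = DMSO median and -100 = no signal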
# Ecoli rRNA inh RFP: further read-out of Ecoli rRNA inh, marked with its call; RFP signal change, %; measured here: RFP humanized mutant strains;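 first replicate; 0 = DMSO median and -100 = no signal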
# Starred values were filed as active, the others as inactive; i = inactive; ? = inconclusive; / = no result given; & = joins results of further samples. Only part of the results is shown, so the mix of outcomes need not match the whole.
SMILES,ALR inh,E coli growth,HNF4A DNA FP,MLL AF4-AF9 inh,Ecoli rRNA inh,Ecoli rRNA inh OD600,Ecoli rRNA inh RFP,FGF22 binding,Vif A3G
COc1ccc(-c2cc(=O)c3c(OC)c(OC)c(OC)c(OC)c3o2)cc1,/,/,5.1,-0.3,7,8,-4.7,i,/
CCC(C)N1CC23C=CC(O2)C(C(=O)OC)C3C1=O (centres undefined),-7,0.73,-2.6,-1.6,10,16,1.7,/,74%
O=C(O)c1cccc(S(=O)(=O)N2CCC(Cc3ccccc3)CC2)c1,5,0.66,3.9,-4.4,-28,-25,-2.7,i,2%
Cc1cc2c(cc1C)[n+](C)cn2CC(O)COCC1CC=CCC1 (centres undefined),-3,0.69,3.5,-0.1,-29*,-16*,3.1*,i,-8%
Oc1ccc(/C=N/Nc2ccnc3cc(Cl)ccc23)c(O)c1O,2,/,5.9,5.4,5,24,1.5,i,/
C[n+]1ccc(C(=O)NCc2ccccc2)cc1,-20,0.68,3.5,/,/,/,/,/,/
CCOc1cc(Cl)c(CNCCCN2CCOCC2)cc1OC,-4,0.63,3.3,-1.9,15,9,3.7,i,2%
CCOc1ccc2nc(NC(=O)c3ccc(S(=O)(=O)N4CCOCC4)cc3)sc2c1,-4,0.73,-1.0,/,/,/,/,/,31%
COc1ccc(C(=O)CSc2nnc(CNC(=O)c3ccco3)n2C)cc1OC,28,0.69,-2.7,-0.9,7,6,0.4,i,/
CCC(C(=O)Nc1cccc(C(=O)O)c1)c1ccccc1 (centres undefined),2,0.66,6.0,-2.9,3,-11,1.1,i,-6%
Cc1ccc(S(=O)(=O)Nc2ccc3c(c2)CC(=O)N([C@@H](C)CO)C[C@H](C)[C@@H](CN(C)S(=O)(=O)c2ccc(C)cc2)O3)cc1,/,/,/,-2.5,-3,2,0.0,i,/
CC(N)c1csc(Nc2cc(Oc3ccccc3)ncn2)n1 (centres undefined),/,/,2.4,6.8,/,/,/,i,/
C=CCn1c(COc2ccc(F)cc2)nnc1SCC(=O)c1c[nH]c2c(CC)cccc12,-1,0.66,-1.8,-7.3,3,10,-1.4,i,/
C[C@@H]1CN([C@H](C)CO)C(=O)CCCn2nncc2CO[C@H]1CN(C)CC1CC1,/,/,-1.4,-1.1&-0.1,4&21,13&16,-1.7&0.5,i,/
CN1CCN(C(=O)C[C@@H]2C[C@H]3c4cc(NC(=O)C5CCC5)ccc4O[C@H]3[C@@H](CO)O2)CC1,/,/,/,-5.1,-2,8,-2.0,i,/
Nc1c(S(=O)(=O)c2cccs2)c2nc3ccccc3nc2n1Cc1ccc2c(c1)OCO2,-3,0.72,-2.1,/,/,/,/,/,2%
N#C/C(=C\c1ccccc1C(F)(F)F)C(=O)Nc1ccccc1F,28,0.68,-2.2,/,/,/,/,/,3%
O=C(c1ccc(F)cc1)C1CCN(Cc2ccc(F)cc2)CC1,0,0.69,4.2,-5.2,4,4,1.5,i,/
COCc1cc(=O)[nH]c(=S)[nH]1,15,0.71,-0.2,0.6,6,-1,-3.9,i,/
O=C(CCNC(=O)c1ccccc1Cl)NCC1CCCO1 (centres undefined),-4,0.7,-0.4,7.2,5,2,0.2,i,-5%
Cc1ccc(NC(=O)C[n+]2ccccc2)cc1C,/,0.71,-1.7,5.4,22,7,1.1,i,/
Cc1ccc(N=C2NC(=O)CS2)c(C)c1,-5,0.7,-3.8,/,/,/,/,/,1%
O=C(O)C1CCCCN1S(=O)(=O)c1ccccc1 (centres undefined),26,0.7,3.9,/,/,/,/,/,-5%
Cc1[nH]c2ccc(OC(=O)N3CCOCC3)cc2c1C(=O)OC(C)C,-2,0.73,-3.9,2.4,-13,-16,1.7,i,15%
CCN1CCCc2cc(CN(CCN3CCOCC3)C(=S)Nc3ccc(C)cc3)ccc21,99*,0.64,9.0,?,-5,-1,18,i,-4%

# 5 compounds from above, arranged by the number in MLL AF4-AF9 inh, descending:
SMILES,ALR inh,E coli growth,HNF4A DNA FP,MLL AF4-AF9 inh,Ecoli rRNA inh,Ecoli rRNA inh OD600,Ecoli rRNA inh RFP,FGF22 binding,Vif A3G
CC(N)c1csc(Nc2cc(Oc3ccccc3)ncn2)n1 (centres undefined),/,/,2.4,6.8,/,/,/,i,/
Cc1[nH]c2ccc(OC(=O)N3CCOCC3)cc2c1C(=O)OC(C)C,-2,0.73,-3.9,2.4,-13,-16,1.7,i,15%
CCC(C)N1CC23C=CC(O2)C(C(=O)OC)C3C1=O (centres undefined),-7,0.73,-2.6,-1.6,10,16,1.7,/,74%
CCC(C(=O)Nc1cccc(C(=O)O)c1)c1ccccc1 (centres undefined),2,0.66,6.0,-2.9,3,-11,1.1,i,-6%
O=C(O)c1cccc(S(=O)(=O)N2CCC(Cc3ccccc3)CC2)c1,5,0.66,3.9,-4.4,-28,-25,-2.7,i,2%

# The results go on.
SMILES,ALR inh,E coli growth,HNF4A DNA FP,MLL AF4-AF9 inh,Ecoli rRNA inh,Ecoli rRNA inh OD600,Ecoli rRNA inh RFP,FGF22 binding,Vif A3G
CN(C(=O)c1ccc(NC(=O)Cc2cccc(NC(=O)C3CCN(C(=O)C4CCC4)CC3)c2)cc1)C1CC1,/,0.7,-2.6,0.5,-3,-4,2.2,i,-3%
COc1ccc(C2C(C(=O)OCC(=O)N3CCCCC3)CCC(=O)N2c2ccc(OC)cc2)cc1 (centres undefined),-2,0.7,4.5,/,/,/,/,/,2%&0%
CCN1[C@H](C(=O)NC2Cc3ccccc3C2)[C@@H](CO)[C@@H]2Cn3c(ccc(C4=CCCC4)c3=O)[C@@H]21,/,/,/,3.1,-9,6,6.3,i,/
CCc1c(C#N)c(=O)[nH]c(=O)n1-c1ccccc1,-15,0.62,-1.7,-1.7,2,-12,-3.1,i,/
COCCN(C(=O)COC(=O)CCC(=O)c1ccc(C)cc1)c1c(N)n(Cc2ccccc2)c(=O)[nH]c1=O,-5,0.67,4.1,-0.2,8,9,3.4,i,/
CCCC(C)C(=O)Nc1ccccc1C(=O)OCC (centres undefined),-11,0.69,0.0,/,/,/,/,/,-3%
CN(C)c1ccc(CNC(=O)CCS(=O)(=O)c2ccc3c(c2)oc(=O)n3C)cc1,1,0.71,-2.1,1.7,25,24,-0.2,i,/
OCC1OC(n2cnc3c(=S)nc[nH]c32)CC1O (centres undefined),/,0.71,0.7,-1.2,-2,14,-0.2,i,-2%
CCOC(=O)C1CCN(C(=S)Nc2cc(C)ccc2C)CC1,0,0.71,-1.1,0.2,/,/,/,i,/
CC(=O)N1CCCc2cc(S(=O)(=O)N3CCCC(C(=O)N4CCN(c5cc(C)ccc5C)CC4)C3)ccc21 (centres undefined),-3,0.69,0.9,3.0,1,-10,-1.8,i,/
C[C@@H]1CN([C@@H](C)CO)C(=O)c2cccc(NS(=O)(=O)c3cccs3)c2O[C@@H]1CN(C)Cc1ccc(C(=O)O)cc1,/,/,/,-4.2,0,0,0.0,i,/
C[C@@H]1CCCCO[C@@H](CN(C)Cc2ccncc2)[C@@H](C)CN([C@@H](C)CO)C(=O)c2cc(NS(=O)(=O)c3cccs3)ccc2O1,/,/,/,0.8,-1,1,-0.3,i,/
NC(=O)Cn1cnc2c(nnn2-c2cccc(Cl)c2)c1=O,-12,0.69,-0.6,-2.1,-12,-3,2.6,i,0%
Cc1cccn2c(=O)c3cc(C#N)c(=NC(=O)c4ccco4)n(Cc4ccco4)c3nc12,61,/,-19,0.1,8,-5,-0.2,i,?
Cc1ccc(CNC(=O)C2CCN(C(=O)Nc3ccccc3)CC2)cc1,4,0.68,1.2,-41,1,1,-0.4,i,/
O=S(=O)(c1ccc(F)cc1)N1CCCCN2[C@H](CO)[C@H](c3ccc(C4=CCCCC4)cc3)[C@@H]2C1,/,/,/,3.1,-3,-1,1.5,i,/
COc1ccccc1CNC(=O)c1cc2ccccc2o1,-3,0.7,-3.1,-2.2,3,-9,2.0,i,/
COc1ccccc1NC(=O)C(C)Sc1nnc2ccccn12 (centres undefined),3,0.71,-0.6,0.9,12,18,2.1,i,/
C[C@@H]1CN([C@@H](C)CO)C(=O)Cc2cc(NC(=O)Cn3cnnn3)ccc2O[C@@H]1CN(C)C(=O)Nc1ccccc1,/,/,/,-2.7,2,6,-3.5,i,/
COc1ccc(-c2nnc(-c3ccc(F)cc3)o2)cc1,-7,0.67,4.7,-7.6,-9,-1,3.6,i,/
CCc1nnc(NC(=O)c2cc(OC)c(OC)cc2[N+](=O)[O-])s1,-10,0.66,-1.6,0.0,-1,0,-3.1,i,19%
COc1ccc(CNC(=O)CSc2ncn[nH]2)cc1OC,-8,0.64,-1.1,-1.8,7,13,-3.1,i,/
Cc1noc(C)c1NC(=O)N(C)C[C@H]1Oc2ccc(NC(=O)Cc3ccccc3)cc2CC(=O)N([C@H](C)CO)C[C@@H]1C,/,/,/,1.7,5,16,0.1,i,/
COc1cc(/C=N/NC(=O)c2ccc(CSc3nc4ccccc4[nH]3)cc2)ccc1O,99*,/,2.3,0.8,-20,-13,-4.3,i,-3%
CCCC(C)NS(=O)(=O)c1ccc(OC)c(C)c1 (centres undefined),34,0.67,-0.2,/,/,/,/,/,7%

# Next section:
SMILES,ALR inh,E coli growth,HNF4A DNA FP,MLL AF4-AF9 inh,Ecoli rRNA inh,Ecoli rRNA inh OD600,Ecoli rRNA inh RFP,FGF22 binding,Vif A3G
CC(Sc1ccc([N+](=O)[O-])cn1)C(=O)Nc1nccs1 (centres undefined),-5,/,3.5,0.6,1,3,-3.4,i,/
CCC(=O)N1[C@@H](CO)[C@@H]2c3ccccc3N(C(=O)Nc3ccc(Cl)cc3)C[C@@H]21,/,/,/,0.9,-17,-4,-1.6,i,/
CCOc1ccc(N=Nc2c(C)[nH]n(-c3ccccc3)c2=O)cc1,-4,0.69,3.5,0.6,9,5,-1.1,/,/
COc1cccc(C2C(C(=O)c3ccco3)=C(O)C(=O)N2CCN(C)C)c1OC (centres undefined),-7,0.73,1.1,0.6,14,7,-5.5,i,-1%
O=C(Nc1nc(-c2ccc3c(c2)OCCO3)cs1)c1ccco1,30,/,-1.8,-1.5,-25,-41,-8.2,i,-6%
O=C1CCC(/C=C/c2ccccc2)=NN1Cc1ccc(Cl)c(Cl)c1,-2,/,-0.7,/,/,/,/,/,1%
C[C@H]1CN([C@@H](C)CO)S(=O)(=O)c2ccc(C#CC3(O)CCCC3)cc2O[C@H]1CN(C)C(=O)Cc1ccncc1,/,/,/,4.9,-4,2,2.1,i,/
CSc1ccc(NC(=O)C2(C)CCN2C(=O)Cc2ccc(C(C)(C)C)cc2)cc1 (centres undefined),/,/,1.1,-1.5,-9,-8,-0.8,i,/
Cc1ccc(C(=O)N/N=C\c2ccc([N+](=O)[O-])s2)cn1,-33,/,-4.0,-0.2,-57,-79,-31,i,7%
COc1ccc(NC(=O)N2C[C@@H](O)COC[C@@H]3O[C@@H](CC(=O)N4CCCCC4)CC[C@H]32)cc1,/,/,/,2.0,0,12,-1.1,i,/
COc1ccc2[nH]c(C(=O)O)c(CCN3C(=O)c4ccc(C(=O)O)cc4C3=O)c2c1,-23,0.7,-3.4,0.4,-3,6,1.6,i,-5%
CCN(CCN1CCCC1)C(=O)c1cc(COc2ccccc2SC)on1,-14,/,-0.7,7.3,5,0,9.9,i,/
Cc1cccc2cc(CN(CC3CCCO3)S(=O)(=O)c3ccccc3)c(=O)[nH]c12 (centres undefined),-1,0.69,-3.3,2.3,-24*,-20*,1.2*,i,-6%
CCOC(=O)/C=C1\CN(CCC(C)C)S(=O)(=O)c2ccccc21,20,/,-0.4,-7.7,-3,-14,-9.1,i,/

# Bioassay records deposited in PubChem BioAssay by several laboratories.
